GLA inh pH 4.5: qHTS Assay for Inhibitors of Human alpha-Galactosidase at pH 4.5. Alpha-galactosidase A (Homo sapiens), P06280. purified enzyme, 4-MU-alpha-Gal fluorescence, pH 4.5. activity change, negative = inhibition, % at 105 µM. 230,000 tested, under 10 active. AID 1467, 2008; inconclusive = small, poorly fitted or top-dose-only inhibition, or a rising curve; inactive = flat fitted curve, though single readings scatter; no compound was filed as active;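 further: 0% = full activity with enzyme and -100% = basal without enzyme; dose as in the result columns while the protocol names 77 µM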
Target sequence (P06280 whole entry, looked up): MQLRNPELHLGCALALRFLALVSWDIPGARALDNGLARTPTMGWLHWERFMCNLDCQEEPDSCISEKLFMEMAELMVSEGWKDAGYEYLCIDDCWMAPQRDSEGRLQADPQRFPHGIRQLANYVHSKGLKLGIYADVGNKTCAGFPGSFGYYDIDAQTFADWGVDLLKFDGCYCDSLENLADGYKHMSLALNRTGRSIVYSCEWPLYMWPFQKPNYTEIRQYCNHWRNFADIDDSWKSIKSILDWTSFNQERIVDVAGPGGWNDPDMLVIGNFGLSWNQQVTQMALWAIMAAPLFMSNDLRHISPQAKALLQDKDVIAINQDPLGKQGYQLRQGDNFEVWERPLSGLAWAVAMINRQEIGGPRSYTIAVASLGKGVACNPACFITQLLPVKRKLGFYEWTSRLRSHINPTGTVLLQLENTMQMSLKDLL
Rango dissoc inh: qHTS Assay for Inhibitors of RanGTP induced Rango (Ran-regulated importin-beta cargo) - Importin beta complex dissociation; Snurportin-1 (Homo sapiens) + GTP-binding nuclear protein Ran (Homo sapiens) + Importin …; Biochemical FRET Rango-importin beta, RanGTP-induced dissociation; Potency, µM (highest dose often 46.1 µM), for the others: top-dose activity change, negative = inhibition; 340,000 tested, 0.071% active; AID 540253, 2011; active means falling FRET ratio curve, often poorly fitted, with flat reads before Ran was added; inconclusive means other falling curves, or compound fluorescence or quenching; inactive means flat or rising ratio curve;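 further: potency means the concentration at half of the fitted maximal effect; % of control where 0% means no effect; nearly all actives have a fitted effect of over 45% in size; -100% = wells without RanGTP and RCC1; the record marks most hits as doubtful in a second field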
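Quantitative HTS using a FRET biosensor: 0.1 uM Rango, 0.25 uM importin beta, 0.6 uM Ran, 2 mM GTP, 0.2 uM RCC1 final, PBS with DTT, Tween-20 and BSA. Post-read taken 45 min after Ran addition.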
miR-21 reporter: qHTS Assay for Modulators of miRNAs and/orActivators of miR-21; 340,000 tested, under 10 active; Potency, µM (series often up to 38.3 µM), without a hit: at the highest dose reporter change, positive = more light; HeLa miR-21 FLuc reporter, luciferase, 48 h; active = well fitted rising curve with a large enough effect; inconclusive = small, poorly fitted or top-dose-only effect; inactive = no such curve, though single readings can be large or run the other way;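 further: % of control where 0% means no effect; miR-21 action dims this reporter so a rising signal means less miR-21 action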
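HeLa cells stably expressing CMV-driven firefly luciferase with a downstream miR-21 binding sequence, endogenously expressing miR-21, were treated with titrations (up to about 40uM final) for 48 hours at 37 degree Celsius. Luciferase luminescence was read after lysis.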
Rango-impB inh: qHTS Assay for Inhibitors of Rango (Ran-regulated importin-beta cargo) - Importin beta complex formation | Importin subunit beta-1 (Homo sapiens), Q14974 | Rango CFP/YFP FRET sensor + importin beta, 45 min | Potency, µM (highest dose often 92.2 µM), inactives show top-dose inhibition of complex formation | 340,000 tested, 0.031% active | AID 540263, 2011; active = rising FRET ratio curve, often small or poorly fitted; inconclusive = mostly compound fluorescence or quenching in the first reads; inactive = flat curves in all reads;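 further: potency means the concentration at half of the fitted maximal effect; 0% = DMSO wells and 100% = buffer wells lacking importin beta; nearly all actives have a fitted effect of over 15% in size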
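FRET biosensor Rango (snurportin 1 IBB between N-terminal EYFP and C-terminal Cerulean), 50 nM in PBS/1 mM DTT/0.02% Tween-20/0.1% BSA, preincubated 5 min RT with compound; 0.125 microM importin beta added, 45 min RT, CFP/YFP FRET ratio read.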
* hit, by the source's call; ? = inconclusive; / = not tested or not shown; & = joins results of further samples; [ ] = remark or other dose.

SMILES	GLA inh pH 4.5	Rango dissoc inh	miR-21 reporter	Rango-impB inh
Cc1[nH]c(=O)[nH]c(=O)c1S(=O)(=O)N(CC(C)C)CC(C)C	9[21.1 µM]	0%	-2%	-0.6%
CC(C)(C)c1cc(NC(=O)NN2CCOCC2)nn1-c1c(Cl)cc(Cl)cc1Cl	-4	-14%	0%	3.9%
O=C(c1ccc2c(c1)C(=O)N(Cc1ccco1)C2=O)N1CCOCC1	3	-12%	-1%	-1.4%
CCCCCCN(C(=O)CCCCCN1C(=O)NC(c2ccc(-c3ccccc3)cc2)C(C(=O)OCc2ccccc2)=C1C)C(C(=O)NCCCC)c1cccc(C(=O)OC)c1 (stereo not drawn)	-3&-1	/	-5%	/
CC(C)Oc1ccc(C2CCC(=O)NC2=O)cc1 (stereo not drawn)	-17	12%	-1%	-0.7%
COC(=O)c1ccc(OC(=O)c2nn(C)cc2Cl)c(OC)c1	9	-2%	2%	0.1%
Cn1c(SCc2cnc(-c3ccccc3)s2)nnc1C1COc2ccccc2O1 (stereo not drawn)	5	0%	-3%	0.6%
CC(C)NC(=O)CSc1ccccc1C(=O)NCc1ccc2c(c1)OCO2	3	16%	-1%	-2.8%
COc1cc(OC)c(OC)cc1CNC(=O)c1cc(=O)c2ccccc2o1	/	-16%	-7%	-3.7%
CC(C)CC(C(=O)OCC(=O)Nc1ncc(Cl)cc1Cl)N1C(=O)c2ccccc2C1=O (stereo not drawn)	?	14%	1%	1.1%
CC(C)C(c1nnnn1Cc1ccc(F)cc1)N1CCC(C(N)=O)CC1 (stereo not drawn)	-7	-16%	1%	?
N#CCCn1nc(-c2ccc([N+](=O)[O-])cc2)cc1Nc1ccccc1NC(=O)C(F)(F)F	7	-16%	21%	1.8%
COC(=O)N/N=C/c1ccc(-c2cc(Cl)ccc2Cl)o1	-8	0%	-12%	-0.1%
C/C(N)=C(/C#N)C(=O)CSc1nc2ccc(C)cc2[nH]1	-2	1%	-32%	5.8%
CC(C)(C)NC(=O)C(c1ccccc1)N(C(=O)c1ccco1)C1CC1 (stereo not drawn)	-5	-3%	1%	-4.3%
CC1CN(C(=O)CNC(=O)COc2ccccc2)CC(C)O1 (stereo not drawn)	/	0%	/	0.0%
O=C(C[n+]1ccccc1)N/N=C/c1cc(Br)ccc1F	/	-3%	/	0.1%
CC(C)OC(=S)N/C(=N\S(=O)(=O)c1ccccc1)c1ccccc1	8	-3%	-10%	3.9%
CCC(CO)NCc1ccccc1OC(C)C (stereo not drawn)	0	4%	-1%	-0.5%
COc1cccc(C2c3c(oc4cc(C)c(C)cc4c3=O)C(=O)N2CCCN(C)C)c1 (stereo not drawn)	7	-27%	-16%	-1.6%
CC(C)c1nc(SCC(=O)NC2CCCC2)c2ccccc2n1	/	9%	-1%	7.6%
CCCc1cc2c(=O)c(-c3ccc4c(c3)OCCO4)coc2cc1OC(=O)c1ccco1	-4	-1%	-50%	0.2%
COc1cccc(NC(=O)c2ccccc2-c2nc(-c3ccc(Cl)cc3)no2)c1	-4	-11%	-9%	-3.9%
C=C(C)Cn1c(SCC(=O)N/N=C/c2ccccc2)nc2ccccc2c1=O	8	5%	-6%	0.8%
CCc1ccccc1NC(=O)CSc1nnc([C@@H](NC(=O)OC(C)(C)C)C(C)C)o1	10	-2%	8%	0.9%
New compounds follow
SMILES	GLA inh pH 4.5	Rango dissoc inh	miR-21 reporter	Rango-impB inh
FC(F)(F)c1cccc(Nc2nc(N3CCCC3)nc(N3CCCC3)n2)c1	-1	-5%	-5%	-2.1%
CC(C)(C)CC(C)(C)c1ccc(OCC(=O)N/N=C/c2ccc(S(=O)(=O)O)o2)cc1	-13	-26%	2%	0.0%
O=C(OCn1nnc2ccccc2c1=O)c1cccnc1Cl	-1	6%	-7%	3.3%
Cc1ccccc1N=C1c2cc([N+](=O)[O-])ccc2-c2ncccc21	8	-13%	-1%	-0.7%
COc1cc(NC(=O)c2ccco2)c(OC)cc1NC(=O)CCC(=O)Nc1cc(C)cc(C)c1	-2	6%	10%	-2.8%
Cc1ccc(CNC(=O)C2CC2c2ccccc2)cc1 (stereo not drawn)	4	18%	-15%	-2.6%
COC(=O)c1ccc2c(c1)NC(=O)C(N(CC(C)C)CC(C)C)S2 (stereo not drawn)	11	13%	3%	-1.8%
Cc1onc(-c2ccccc2Cl)c1C(=O)Nc1nn[nH]n1	3	-7%	-6%	0.4%
Cc1cc(-c2csc(N)n2)c(C)n1-c1ccccc1	-7	-9%	-23%	?
Cc1cccc(N2CCN(S(=O)(=O)c3ccc4c(c3)OCCO4)CC2)c1C	/	18µM*	1%	?
COc1ccc(NC(=O)CSc2nnc(Cc3ccccc3)c(=O)n2N)c(OC)c1	/	-4%	/	1.0%
CCCCCCc1nc(C(N)=O)c2[nH]c(=O)n(-c3ccccc3F)c2n1	/	0%	-5%	-6.5%
COc1ccc(NC(=O)COc2ccc(C(=O)NC3CCCc4ccccc43)cc2OC)cc1 (stereo not drawn)	5	8%	2%	-1.9%
O=C(Nc1nc2c(s1)COc1ccccc1-2)c1cccs1	-5	9%	9%	-0.1%
O=C(OCC(=O)N1CCc2ccccc21)c1cc(S(=O)(=O)N2CCOCC2)ccc1F	/	-1%	/	-0.2%
COc1ccc(CCNC(=O)CCN2C(=O)c3cccc4cccc(c34)C2=O)cc1OC	-1	-5%	-7%	0.1%
CCn1c(SCc2cc(=O)[nH]c3ccccc23)nc2c1c(=O)n(C)c(=O)n2C	/	-7%	/	0.9%
CCN(CC(=O)Nc1ccccc1C(F)(F)F)C(=O)CCc1nc2ccccc2c(=O)[nH]1	/	16%	-1%	1.7%
COc1ccccc1C(=O)NC(=S)NC12CC3CC(CC(C3)C1)C2	/	2%	-2%	-1.2%
COc1ccc(C(CCNCc2ccccc2)c2ccc(F)cc2)cc1 (stereo not drawn)	0	3%	25%	-0.1%
Cc1ccc(N(C(=O)c2ccco2)C2C=CS(=O)(=O)C2)cc1 (stereo not drawn)	-3	-5%	-2%	0.9%
CCOc1ccc(-c2c(C(=O)N/N=C/c3ccoc3)nnn2-c2nonc2N)cc1	/	8%	2%	-0.1%
C#CCOCCOCCOCCNc1nc(N2CCN(C(=O)C(Cc3ccc(O)cc3)n3cc(C(N)C(C)CC)nn3)CC2)nc(N2CCN(C(=O)C(Cc3ccc(O)cc3)n3cc(C(N)C(C)CC)nn3)CC2)n1 (stereo not drawn)	1	-13%	3%	-0.6%
COc1ccc(NC(=O)C2CC(=O)N/C(=N/NC(=O)c3ccc(Cl)cc3)S2)cc1 (stereo not drawn)	-9	1%	5%	2.4%
CCOC(=O)C1=C(c2ccccc2)NC(=O)NC1c1ccc(N(C)C)cc1 (stereo not drawn)	-1	0%	-8%	-4.4%

Quoted from the listing (five entries):
SMILES	GLA inh pH 4.5	Rango dissoc inh	miR-21 reporter	Rango-impB inh
FC(F)(F)c1cccc(Nc2nc(N3CCCC3)nc(N3CCCC3)n2)c1	-1	-5%	-5%	-2.1%
CC(C)(C)CC(C)(C)c1ccc(OCC(=O)N/N=C/c2ccc(S(=O)(=O)O)o2)cc1	-13	-26%	2%	0.0%
O=C(OCn1nnc2ccccc2c1=O)c1cccnc1Cl	-1	6%	-7%	3.3%
Cc1ccccc1N=C1c2cc([N+](=O)[O-])ccc2-c2ncccc21	8	-13%	-1%	-0.7%
COc1cc(NC(=O)c2ccco2)c(OC)cc1NC(=O)CCC(=O)Nc1cc(C)cc(C)c1	-2	6%	10%	-2.8%

Some entries already given, limited to GLA inh pH 4.5, Rango dissoc inh and Rango-impB inh.
smiles	GLA inh pH 4.5	Rango dissoc inh	Rango-impB inh
COC(=O)c1ccc2c(c1)NC(=O)C(N(CC(C)C)CC(C)C)S2 (stereo not drawn)	11	13%	-1.8%
Cc1onc(-c2ccccc2Cl)c1C(=O)Nc1nn[nH]n1	3	-7%	0.4%
Cc1cc(-c2csc(N)n2)c(C)n1-c1ccccc1	-7	-9%	?
Cc1cccc(N2CCN(S(=O)(=O)c3ccc4c(c3)OCCO4)CC2)c1C	/	18µM*	?

Continued:
SMILES	GLA inh pH 4.5	Rango dissoc inh	miR-21 reporter	Rango-impB inh
CS(=O)(=O)N1CCc2cc(C(=O)N3CCN(c4ccccc4)CC3)ccc21	/	-9%	-12%&-12%	1.1%
O=C1c2ccccc2NC(c2cccc(O)c2)N1Cc1ccco1 (stereo not drawn)	0	-7%	-5%	3.5%
COCc1nc(-c2ccc(-c3ccc(C)cc3)nc2OC)no1	-2	-12%	-48%	-5.1%
CCc1cc2c(C)cc(=O)oc2cc1OC(=O)C1CCCN1C(=O)OC(C)(C)C (stereo not drawn)	?	?	-23%	?
COCCCNC(=O)c1c(-c2ccccc2)noc1C	-3	1%	-3%	7.6%
O=c1[nH][nH]c(-c2ccccc2)c1C=Nc1ccc(F)cc1F	4	-19%	-4%	1.4%
Cc1nn(CC(=O)NC2(C#N)CCCCC2)c(C)c1[N+](=O)[O-]	/	1%	/	1.4%
COc1ccc(S(=O)(=O)Nc2c(C(=O)O)[nH]c3ccccc23)c(OC)c1	-19	-4%	-11%	-3.9%
CC(C)(C)c1ccc(C(=O)Nc2cccc(-n3cnnn3)c2)cc1	/	14%	19%	-1.3%
CCCCN(C(=S)Nc1ccc(F)cc1)c1c(N)n(CCC)c(=O)[nH]c1=O	-7	7%	4%	2.3%
Cc1cc(C)c(S(=O)(=O)N2CCN(S(=O)(=O)N3CCC(C)CC3)CC2)c(C)c1	/	3%	-2%	0.5%
Cc1ccc(C(=O)Nc2ccc(C(=O)O)cc2NC(=O)c2ccc(C)cc2)cc1	/	24%	-33%	0.9%
CC(OC(=O)c1nc(Cl)ccc1Cl)C(=O)Nc1ccc2c(c1)OCCO2 (stereo not drawn)	/	23%	/	0.0%
CCCCN(C(=O)c1ccc(C)c(S(=O)(=O)N2CCOCC2)c1)c1c(N)n(CCCC)c(=O)[nH]c1=O	/	-17%	/	-0.3%
COc1cccc(C(=O)CN(C(=O)c2ccc(Cl)c(Cl)c2)N2C(=O)C3CCCCC3C2=O)c1 (stereo not drawn)	-8	-15%	-6%	-0.5%
O=C(c1ccc(-n2cnnn2)cc1)N1CCCCC1	-1	-3%	-15%	0.0%
COc1ccccc1NC(=O)Cn1c(=O)sc2ccccc21	-5	-6%	-5%	-3.2%
CCN(CC)c1ccc(C=Nc2ccc(C)cc2)c(O)c1	0	-25%	4%	-2.0%
Cc1c(Cl)cnc(NC(=O)COC(=O)c2cccs2)c1Cl	/	-10%	/	-0.9%
CC(=O)Nc1sc(N/N=C/c2ccc(O)cc2)nc1-c1ccc(C)cc1	0	-8%	-7%	-2.0%
Cc1cc(C)c2c(n1)sc1c(=O)n(Cc3ccc(F)cc3)cnc12	4	-1%	2%	0.1%
CCSc1nc(O)c(Cc2ccccc2)c(=O)[nH]1	-5	-16%	0%	6.1%
S=C(NCc1ccccc1)NNc1nc2ccccc2[nH]1	1	-9%	-2%	-1.2%
Cc1ccc(S(=O)(=O)N/N=C\c2cccnc2)cc1	2	0%	-6%	0.5%
Cc1ccc(C)c(N2CCN(C(=O)c3ccc(N4CCOCC4)c([N+](=O)[O-])c3)CC2)c1	/	2%	5%	0.8%
O=C1CCc2cc(S(=O)(=O)NCc3ccc(F)cc3)cc3c2N1CCC3	/	1%	/	7.7%
CC(C)C1OC2(C)OC(=N)C1(C#N)C(C#N)(C#N)C2c1ccccc1 (stereo not drawn)	?	?	-4%	?
Cc1nc(N2N=C3/C(=C/c4ccc(F)cc4)CCCC3C2c2ccc(F)cc2)sc1C(=O)N(C)C (stereo not drawn)	-9	?	18%	?
CCC(C)C(N)C(=O)N1CCCC1C(=O)NC(C(=O)O)C(C)CC (stereo not drawn)	/	-1%	/	-2.9%
CCC(=O)N1CCc2cc(Br)cc(S(=O)(=O)N3CCCC(C(=O)O)C3)c21 (stereo not drawn)	/	1%	-3%	-2.6%

High-throughput results (PubChem)

Not all compounds are listed; the hit share may differ from the screen's.
